Mtb MbtI inh: MbtI salicylate synthase inhibitors, primary screen, biochemical, fluorescence intensity. P9WFX0. inhibition, %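 (about 17 µg/mL by stock and volumes)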. AID 493033, 2011. 100,000 compounds, 0.89% hits. purified MbtI enzyme, fluorescence intensity read-out;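 active means above 50% in both replicates, above 80% if mildly self-fluorescent; inactive means the rest, strongly fluorescent compounds included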;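 further: 0% = mean of negative and 100% = mean of positive controls; one replicate is shown; some compounds called inactive have numbers as strong as hits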
Polio RdRp inh: poliovirus RdRp elongation inhibitors, primary screen, biochemical, fluorescence polarization, total intensity | 150,000 compounds, 0.66% hits | Genome polyprotein (Poliovirus type 1 (strain Mahoney)), P03300 | poliovirus polymerase elongation; stronger effect = lower value | AID 588519, 2011 | % elongation, % (compound at 16.7 µg/mL); in the data active means % elongation below about 90%; further: some results filed as inactive read as strong as hits
Target sequence (P03300 1749-2209 limits assumed): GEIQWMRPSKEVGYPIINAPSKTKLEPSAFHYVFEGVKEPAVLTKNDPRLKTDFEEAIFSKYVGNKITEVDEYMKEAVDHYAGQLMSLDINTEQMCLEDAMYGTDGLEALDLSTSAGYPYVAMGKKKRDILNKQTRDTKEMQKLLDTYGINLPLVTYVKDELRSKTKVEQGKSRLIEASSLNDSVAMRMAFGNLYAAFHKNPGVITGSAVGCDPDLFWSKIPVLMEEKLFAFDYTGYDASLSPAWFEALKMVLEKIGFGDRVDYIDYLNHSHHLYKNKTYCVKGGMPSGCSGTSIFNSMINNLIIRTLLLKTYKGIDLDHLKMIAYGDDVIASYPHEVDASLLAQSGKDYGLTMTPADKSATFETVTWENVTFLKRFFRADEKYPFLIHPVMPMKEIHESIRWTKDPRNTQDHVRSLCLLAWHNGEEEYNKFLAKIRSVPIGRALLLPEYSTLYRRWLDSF
MenB inh: M. tuberculosis MenB inhibitors, primary screen, biochemical, absorbance; 1,4-dihydroxy-2-naphthoyl-CoA synthase (Mycobacterium tuberculosis (strain ATCC 25618 / …; MenB enzyme assay, absorbance read-out; some hits fall short of the stated cut; inhibition, %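 (about 12 µg/mL by stock and volumes)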; 100,000 compounds, 0.43% hits; AID 540299, 2011;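 active means mean of two replicates above 30%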;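 further: 0% = no compound and 100% = wells with inactive enzyme; the first replicate is given; strong numbers were not always called active; inactives centre near -10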
Target sequence (P9WNP5 whole entry, looked up): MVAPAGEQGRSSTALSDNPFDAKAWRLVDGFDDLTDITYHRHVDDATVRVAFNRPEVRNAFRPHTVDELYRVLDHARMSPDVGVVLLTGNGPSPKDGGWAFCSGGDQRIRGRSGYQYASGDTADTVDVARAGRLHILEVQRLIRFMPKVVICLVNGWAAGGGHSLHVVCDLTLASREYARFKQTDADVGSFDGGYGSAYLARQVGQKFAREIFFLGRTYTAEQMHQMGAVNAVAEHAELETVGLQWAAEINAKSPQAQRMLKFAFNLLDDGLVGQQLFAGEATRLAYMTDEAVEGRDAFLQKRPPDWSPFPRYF
Polio RdRp inh intensity: also measured in Polio RdRp inh; calls as there; % elongation; measured here: total intensity read-out; formula for this scale not given here;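 total fluorescence in place of polarization; lower means less elongation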
An asterisk follows results filed as active; i = inactive; · = not tested or not shown; & = joins results of further samples.

SMILES	Mtb MbtI inh	Polio RdRp inh	Polio RdRp inh intensity	MenB inh
Cc1nnc(SC(=O)Cn2c3ccccc3c3ccccc32)s1	-1	103	104	0
CCc1ccccc1N1CC(C(=O)O)CC1=O (configuration not stated)	-8	102	105	·
O=C(Nc1ccc(N2C(=O)C3C4C=CC(C4)C3C2=O)cc1)Nc1nncs1 (configuration not stated)	-86	102	102	-12
COc1cc(NC(C)C(=O)N2CCCC2)cc(OC)c1OC (configuration not stated)	-32	108	112	-21
CCNC1(c2cccs2)CCCCC1=O (configuration not stated)	-6	101	99	4
CC1(C)CC(=O)C(C(c2ccc(Cl)cc2)C(C#N)C(N)=S)=C(O)C1 (configuration not stated)	·	107	107	-76
CN(C(=O)c1cccs1)c1ccccc1C(=O)O	-1	100	103	-10
CN(C)C=NC1=NN(c2ccccc2)CC1	22	94	107	-5
CC(=O)NC1CC(C)(C)NC(C)(C)C1	-7	99	102	-6
COC(=O)c1cccc(NC(=O)C2COc3ccccc3O2)c1C (configuration not stated)	·	100	107	-36
Cc1ccn2cc(C(=O)NC3CCCCC3)nc2c1	88	102	100	-38
COc1cccc2c(=O)cc(C)n(CC(=O)Nc3ccccc3)c12	21	101	103	17

Whole records from above.
`COC(=O)c1cccc(NC(=O)C2COc3ccccc3O2)c1C` (configuration not stated) as listed: Mtb MbtI inh = ·; Polio RdRp inh = 100; Polio RdRp inh intensity = 107; MenB inh = -36
`CN(C(=O)c1cccs1)c1ccccc1C(=O)O` as listed: Mtb MbtI inh = -1; Polio RdRp inh = 100; Polio RdRp inh intensity = 103; MenB inh = -10

Remaining list, next part.
SMILES	Mtb MbtI inh	Polio RdRp inh	Polio RdRp inh intensity	MenB inh
O=C(COc1ccccc1)N(Cc1ccccc1O)c1ccccc1Cl	-3	103	97	·
O=C(N/N=C/c1cccs1)C1=COCCO1	40	102	105	-11
CCOc1ccccc1C1SCC(=O)Nc2c1c(=O)[nH]n2C1CCCC1 (configuration not stated)	49	100	103	8
N#CCN(CC#N)S(=O)(=O)c1cc(Cl)ccc1Cl	·	101	111	-11
COC(=O)c1ccc(OC)c(CN2CCN(Cc3ccccc3Cl)S2(=O)=O)c1	-1	104	102	-23
CC(C)(C)c1csc(NC2=NCCC2)n1	3	100	103	11
Cc1nn(-c2ccccc2)cc1C1C=C(c2ccc(Cl)cc2)N=C2SCC(=O)N21 (configuration not stated)	-5	105	104	-6
COc1ccc2c(c1C)CCC(C1(O)C(=O)N(C)c3ccccc31)C2=O (configuration not stated)	·	101	101	-23
COc1ccc(Cc2n[nH]c(=S)o2)cc1	18	101	103	-31
O=S(=O)(c1ccc(Cl)cc1)N1CCCC1c1nc(-c2ccccc2)no1 (configuration not stated)	-5	101	103	0
Nc1ncnc2nc(SCCC(=O)O)[nH]c12	6	103	100	-11
O=C(O)CCNC(=O)c1ccc(NC(=O)C(c2ccccc2)c2ccccc2)cc1	-10	101	99	-25
CCCCC(=O)NC(c1ccco1)c1cc(Cl)c2cccnc2c1O (configuration not stated)	9	93	121	-101
NC1=NC(c2ccccc2)n2c(nc3ccccc32)N1 (configuration not stated)	10	99	101	-1
CC(NC(=O)c1ccccc1C(=O)O)C12CC3CC(CC(C3)C1)C2 (configuration not stated)	-4	99	100	0
CCCCOC(=O)c1ccc(OC(=O)c2cccnc2)cc1	0	99	102	4
Clc1cccc(NCc2nnc(SCc3ccccc3)o2)c1	-8	102	100	-34
O=C(NCCc1nnc2ccc(N3CCCCCC3)nn12)c1ccccc1	-2	105	109	-29
Cc1nonc1OCC12CC3CC(CC(C3)C1)C2	-14	101	104	-21
COC(=O)C1=NOC2C(=O)N(c3ccc(OC)cc3)C(=O)C12 (configuration not stated)	-2	96	88	-6
Cc1ccccc1Nc1nc(N)nc(CNCc2ccccc2)n1	i	102	108	10
NC(=O)c1nc2n(c1N)CCCC2	0	100	103	3
CCOC(=O)c1cnn(-c2ccc(Cl)cc2)c1C1CCNCC1	-1	100	102	16
CCC(C(=O)Nc1c(-c2ccccc2)nc2cc(C)ccn12)c1ccccc1 (configuration not stated)	47	102	104	-51
Cc1c(CCO)sc[n+]1Cc1ccccc1	-14	103	107	·
O=C(Nc1ccncc1)c1ccc2nc[nH]c2c1	-5	101	103	-2
N#CCCn1nc(-c2ccccc2)cc1-c1ccccc1	-20	101	106	-47
CCN(CC)Cc1ccc(C(=O)OC)o1	3	98	106	-4
CC1(C)CC(=O)c2cc(OCC(=O)NCCCN3CCCC3)ccc2O1	118	104	106	-21
O=C(NCc1cccnc1)c1ccc(NC(=O)c2ccco2)cc1	18	100	102	-30
COCCCn1[nH]nnc1=S	49	100	104	-16
Nc1nc(-c2ccco2)nn1C(=O)Cc1ccccc1	-208	98	101	-3
CCN(CC)C(=O)c1sc2nc3c(cc2c1N)CCCCC3	-20	102	99	-20
CCN(CC)CCNc1ccc2nnc(CCNS(=O)(=O)c3ccc(C)cc3)n2n1	7	107	108	-26
N#Cc1cc(Cl)c(N2CCCCCC2)cc1C#N	2	105	103	1
O=C(NCC(c1cccnc1)N1CCN(Cc2ccccc2)CC1)c1ccccc1 (configuration not stated)	1	100	105	2

A second format for part of the listing above.
SMILES,Mtb MbtI inh,Polio RdRp inh,Polio RdRp inh intensity,MenB inh
O=C(O)CCNC(=O)c1ccc(NC(=O)C(c2ccccc2)c2ccccc2)cc1,-10,101,99,-25
CCCCC(=O)NC(c1ccco1)c1cc(Cl)c2cccnc2c1O (configuration not stated),9,93,121,-101
NC1=NC(c2ccccc2)n2c(nc3ccccc32)N1 (configuration not stated),10,99,101,-1
CC(NC(=O)c1ccccc1C(=O)O)C12CC3CC(CC(C3)C1)C2 (configuration not stated),-4,99,100,0
CCCCOC(=O)c1ccc(OC(=O)c2cccnc2)cc1,0,99,102,4
Clc1cccc(NCc2nnc(SCc3ccccc3)o2)c1,-8,102,100,-34
O=C(NCCc1nnc2ccc(N3CCCCCC3)nn12)c1ccccc1,-2,105,109,-29
Cc1nonc1OCC12CC3CC(CC(C3)C1)C2,-14,101,104,-21
COC(=O)C1=NOC2C(=O)N(c3ccc(OC)cc3)C(=O)C12 (configuration not stated),-2,96,88,-6
Cc1ccccc1Nc1nc(N)nc(CNCc2ccccc2)n1,i,102,108,10
NC(=O)c1nc2n(c1N)CCCC2,0,100,103,3
CCOC(=O)c1cnn(-c2ccc(Cl)cc2)c1C1CCNCC1,-1,100,102,16
CCC(C(=O)Nc1c(-c2ccccc2)nc2cc(C)ccn12)c1ccccc1 (configuration not stated),47,102,104,-51
Cc1c(CCO)sc[n+]1Cc1ccccc1,-14,103,107,·
O=C(Nc1ccncc1)c1ccc2nc[nH]c2c1,-5,101,103,-2
N#CCCn1nc(-c2ccccc2)cc1-c1ccccc1,-20,101,106,-47
CCN(CC)Cc1ccc(C(=O)OC)o1,3,98,106,-4
CC1(C)CC(=O)c2cc(OCC(=O)NCCCN3CCCC3)ccc2O1,118,104,106,-21
O=C(NCc1cccnc1)c1ccc(NC(=O)c2ccco2)cc1,18,100,102,-30
COCCCn1[nH]nnc1=S,49,100,104,-16
Nc1nc(-c2ccco2)nn1C(=O)Cc1ccccc1,-208,98,101,-3
CCN(CC)C(=O)c1sc2nc3c(cc2c1N)CCCCC3,-20,102,99,-20

Continuation:
SMILES	Mtb MbtI inh	Polio RdRp inh	Polio RdRp inh intensity	MenB inh
CCOC(=O)CSc1sc(C(=O)OCC)c2c1S(=O)(=O)N(C)c1ccccc1-2	0	111	116	-3
COc1cc(OC)c(C(=O)NCC2CCCO2)cc1OC (configuration not stated)	·	112	112	-13
CC1CNc2ccccc2N=C1N1CCOCC1 (configuration not stated)	·	107	109	-11
O=C(O)c1ccccc1Sc1ccccc1S(=O)(=O)NC12CC3CC(CC(C3)C1)C2	1	103	101	-3
Nc1cnn(C2CCCO2)c(=O)n1 (configuration not stated)	-6	101	101	17
COc1ccc(N2C(=O)C=CC2=O)cc1OC	94*	100	96	·
CC(C)c1ccc(C2Nc3ccccc3S(=O)(=O)N2Cc2ccccc2)cc1 (configuration not stated)	-182	104	100	1
COc1cccc(C2C3=C(CCCC3=O)NC3=C2C(=O)CCC3)c1	116	105	102	-42
Cc1ccc(C(=O)CSc2cccc[n+]2[O-])cc1	69*	100	98	·
COc1cccc(CNC(=O)C2CCCN(C(=O)c3cnn(-c4ccc(F)cc4)c3-n3cccc3)C2)c1 (configuration not stated)	-7	102	100	-11
Cc1ccc(-n2c3c(cc(C(N)=O)c2=O)C(=O)CC(C)(C)C3)cc1	2	102	103	-19
COCC(C)N=C1SCCN1Cc1ccccc1 (configuration not stated)	-3	98	106	1
O=C(O)CC(Cn1[nH]nnc1=S)c1ccccc1 (configuration not stated)	0	101	102	-24
N#Cc1ccc(OCC(=O)Nc2cc(C(F)(F)F)ccc2-n2cncn2)cc1	-6	107	108	-6
CC(NC(=O)c1cccs1)C(c1cccs1)N1CCN(c2ccccc2)CC1 (configuration not stated)	-1	100	101	-12
O=C(CCCN1C(=O)c2ccccc2C1=O)N1CCCCC1	-4	104	103	-25
O=C(CSc1nnc(-c2ccc(Br)cc2)n1-c1ccccc1)N/N=C/c1ccco1	-3	105	101	-28
Cc1cc2c(cc(C(=O)OC(C(=O)NC3CCCC3)c3ccccc3F)n2C)o1 (configuration not stated)	8	106	101	-44
Cc1cc(-c2ccc(C(C)C)c(S(=O)(=O)N3CCOc4ccccc43)c2)on1	-5	102	103	-14
COc1ccc(CC(=O)Nc2ccc(-c3noc(-c4ccc(Cl)cc4)n3)cc2)cc1	1	100	104	-28
CC(=O)Nc1ccc(Nc2ncnc3c2c(-c2ccccc2)cn3-c2cccc(C)c2)cc1	i	102	106	-8
NC(N)=NN=C1c2ccccc2-c2ccccc21	-1	100	100	-18
Cc1ccc(C)c(NC(=O)C(OC(=O)c2ccco2)c2ccccc2)c1 (configuration not stated)	-4	103	107	2
CCOC(=O)c1sc(N)c(C#N)c1CSc1ccc2c(c1)OCCO2	-8	103	116	-1
CC(C)Cc1ccc(C(C)C(=O)NC(C)Cc2c[nH]c3ccccc23)cc1 (configuration not stated)	2	101	101	-11
CSCC(=O)Nc1ccc(-c2ccccc2)cc1	-8	102	104	-3
O=C(O)C1C2C=CC3(O2)C1C(=O)N1c2ccccc2COC13 (configuration not stated)	0	102	99	-33
CCc1cc(C#N)c(O)cn1	89	102	102	-33
O=C(CNC(=O)c1ccccc1)NCc1ccc(F)cc1	-5	101	96	-29
COc1cccc(N=c2scc(-c3cccs3)n2CCCN2CCCC2=O)c1	6	105	95	-40
Cc1nnc(SCc2cc(=O)[nH]c(N3CCN(c4ccccc4)CC3)n2)s1	-5	101	102	-5
CCn1c(SCC(=O)Nc2ccc3c(c2)OCCCO3)nc2cc(S(N)(=O)=O)ccc21	9	103	103	-5
O=C(Nc1nnc(-c2ccccc2)o1)NC1CCCCC1	-131	104	112	-12
Brc1ccc(-c2nnc3sc(CN4CCCCC4)cn23)cc1	2	105&101	109&100	-13
COc1ccc(Cc2nn3c(C(C)(C)C)nnc3s2)cc1OC	24	103	102	1
CCN(CC)S(=O)(=O)c1ccc2c(c1)c(=O)c(C(=O)O)cn2C	-4	102	95	-22
Cc1ccc(S(=O)(=O)N2CCOCC2)cc1C(=O)NC(=S)Nn1cnnc1	8	97	103	-4
CN(C)c1ncnc2c1ncn2C1OC(CO)C(O)C1O (configuration not stated)	-20	100	100	-14
COCCNC(=O)c1ccc(S(=O)(=O)N2CCCc3ccccc32)cc1	-6	105	107	-21
CC1CCCC(NCCNC(=O)c2ccco2)C1 (configuration not stated)	·	103	98	9
Cc1ccc(SCCC(=O)N/N=C/c2c(CO)cnc(C)c2O)cc1	0	107	102	-95

High-throughput results from PubChem BioAssay.
